Menin MLL FP FL: menin-MLL binding inhibition, fluorescein peptide; Fluorescence polarization, fluorescein-MLL peptide displacement from menin; FP activity change, % at 61.4 µM; 290,000 tested, under 10 active; AID 1766; inconclusive = falling polarisation curve, or a change in total fluorescence; inactive = total fluorescence flat and polarisation flat or rising; no compound was filed as active; the % refers to the polarisation; negative = inhibition;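 further: % of control where 0% means no effect; inhibitors lower the polarisation; unlabelled MLL peptide was the positive control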
Sfp PPTase inh: blocks B. subtilis Sfp PPTase activity; Q9F4F7; Biochemical Sfp PPTase activity, qHTS; Potency, µM, inactives show max response, negative = inhibition, actives largely listed as inhibitors; 310,000 tested, 3.5% active; AID 1490; active means well fitted inhibition curve with a large enough effect; inconclusive means small, poorly fitted or top-dose-only effect, or another doubt; inactive means no such curve, though single readings can be large or run the other way;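 further: the enzyme is Sfp with the accession as filed and its product quenches rhodamine fluorescence; potency means the concentration at half of the fitted maximal effect; 0% = enzyme reaction without inhibitor and -100% = no enzyme wells; top concentration of the series not given in the record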
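Buffer: 50 mM Hepes-Na pH 7.6, 10 mM MgCl2, 0.01% Nonidet P-40, 0.01% BSA. Enzyme 15 nM, pre-exposed to compound 15 min; substrates then added and fluorescence change tracked over 30 min.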
ClpP mod: qHTS Assay for Activators of ClpP. purified B. subtilis ClpP, FRET peptide cleavage, 20 min. Potency, µM (highest dose often 57.5 µM), inactives show top-dose activity change, negative = active. 340,000 tested, 1.9% active. AID 651965, 2013; active = well fitted falling curve with a large enough effect; inconclusive = small, poorly fitted or top-dose-only effect; inactive = no such curve, though single readings can be large or run the other way; further: potency means the concentration at half of the fitted maximal effect; the source files actives as falling curves though it sought activators and does not explain the sign; nearly all actives have a fitted effect of over 65% in size; many hits overshoot -100%
Target sequence (P80244 whole entry, looked up): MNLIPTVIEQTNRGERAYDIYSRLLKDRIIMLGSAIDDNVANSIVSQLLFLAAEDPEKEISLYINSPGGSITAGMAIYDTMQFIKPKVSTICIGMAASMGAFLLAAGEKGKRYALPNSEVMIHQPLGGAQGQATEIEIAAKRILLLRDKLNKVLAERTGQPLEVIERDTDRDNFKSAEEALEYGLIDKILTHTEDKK
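FRET quenching reversal measured ClpP activation: 10 microg/mL B. subtilis ClpP at pH 8 with the FRET-FV decapeptide, read at 430 nm after 320 nm excitation. The 20-min minus 0-min signal was scaled between DMSO/no-enzyme wells and ADEP (5.8 microM final).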
TRPML1 blocker: inhibitors of human TRPML1 channel. 390,000 tested, 0.02% active. activity change, negative = inhibition, % (concentration not given with the values). Q9GZU1. AID 624415. TRPML1-inducible cells, Ca2+ dye fluorescence, FDSS; stronger effect = lower value; inhibition of EC80 agonist-evoked calcium signal; in the data active means activity change below about -50%; inconclusive means about -30% to -50%; inactive means above about -30%;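 further: stimulus is agonist 54-4 at its EC80 concentration; on the % scale 0 is the no-effect control and ±100 the full control effect; compound concentration not given in the record; the text of the record puts the active cut at -80%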
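Tet-induced TRPML1-DL cells loaded with Ca8 no-wash calcium dye were read kinetically on FDSS. Compound addition was followed by EC80 agonist 54-4 (4 uM final); inhibition was read over 110 s.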
gsp antag: antagonizes gsp, the McCune-Albright syndrome mutation | AID 624288 | gsp-mutant cells, cAMP HTRF, 30 min; control for the full effect not named in the record | 340,000 tested, 0.4% active | Potency, µM (highest dose often 76.9 µM), for inactives: at the highest dose activity change, negative = inhibition, actives largely listed as inhibitors; active = falling curve of any shape with a large fitted effect; inconclusive = falling curve, mostly with a smaller effect; inactive = flat or rising curve; cell line not stated here;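 further: intracellular cAMP measured with PDE inhibitor Ro 20-1724 present during compound exposure; potency means the concentration at half of the fitted maximal effect; on the % scale 0 is the no-effect control and ±100 the full control effect; nearly all actives have a fitted effect of over 65% in size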
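HTRF cAMP measurement after 30 min RT detection following 30 min, 37C compound treatment alongside […] (added as 300 uM solution) in G418-selected cells seeded at 2000/well and grown 16–24 h.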
TRPV1 potentiator: enhances activation of the human vanilloid receptor TRPV1 | TRPV1-expressing cells, Fluo-8 calcium influx, capsaicin EC20 potentiation; host cell line not named in the record; control for the full effect not named in the record | potentiation, % at 8.33 µM | 320,000 tested, 0.02% active | AID 540277 | Q8NER1; active means potentiation above 80%; inconclusive means 30% to 80%; inactive means below 30%; further: 0% is about no effect
Target sequence (Q8NER1 whole entry, looked up): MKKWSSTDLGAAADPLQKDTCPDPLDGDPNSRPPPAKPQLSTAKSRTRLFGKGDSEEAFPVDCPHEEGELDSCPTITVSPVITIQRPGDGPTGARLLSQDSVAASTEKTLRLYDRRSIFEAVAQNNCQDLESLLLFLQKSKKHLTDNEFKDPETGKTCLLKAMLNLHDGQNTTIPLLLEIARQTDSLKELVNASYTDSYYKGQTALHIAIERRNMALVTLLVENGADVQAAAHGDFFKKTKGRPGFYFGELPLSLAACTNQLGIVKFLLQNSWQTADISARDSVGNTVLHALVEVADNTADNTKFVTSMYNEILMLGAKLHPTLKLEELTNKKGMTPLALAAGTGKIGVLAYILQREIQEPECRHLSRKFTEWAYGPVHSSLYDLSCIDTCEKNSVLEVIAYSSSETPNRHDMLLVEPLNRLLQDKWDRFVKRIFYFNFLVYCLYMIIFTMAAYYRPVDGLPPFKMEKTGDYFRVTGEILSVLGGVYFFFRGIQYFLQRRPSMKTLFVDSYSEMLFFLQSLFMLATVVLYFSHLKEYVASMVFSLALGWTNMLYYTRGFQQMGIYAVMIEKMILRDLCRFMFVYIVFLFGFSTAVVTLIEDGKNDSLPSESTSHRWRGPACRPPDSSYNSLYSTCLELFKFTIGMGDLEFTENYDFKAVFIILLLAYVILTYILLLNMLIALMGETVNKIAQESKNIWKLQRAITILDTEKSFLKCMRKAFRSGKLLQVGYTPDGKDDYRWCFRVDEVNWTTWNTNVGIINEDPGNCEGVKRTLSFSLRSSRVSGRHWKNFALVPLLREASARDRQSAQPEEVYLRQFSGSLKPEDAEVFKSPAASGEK
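TRPV1-expressing cells were cultured overnight at 35.5C and loaded with Fluo-8 calcium dye for 40 to 90 min at room temperature. After a 10 s baseline, compound was added and calcium influx was read kinetically for 3 min (ex 480/em 520 nm).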
gsp agonist: activates gsp, the McCune-Albright syndrome mutation. gsp mutant cells, cAMP HTRF, 30 min; control for the full effect not named in the record. Potency, µM (highest dose often 76.9 µM), for the others: at the highest dose activation (cAMP increase), most hits filed as activators. 340,000 tested, 0.13% active. AID 624287; active = well fitted activation curve with a large enough effect; inconclusive = small, poorly fitted or top-dose-only effect, or another doubt; inactive = no such curve, though single readings can be large or run the other way; cell line not stated here;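 further: phosphodiesterase inhibitor Ro 20-1724 added with compounds to block cAMP breakdown; potency means the concentration at half of the fitted maximal effect; nearly all actives have a fitted effect of over 60% in size; about a fifth of the inactives were tested at one dose only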
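Cells stably selected in G418 were plated at 2000/well, grown 16-24 hr, then given compounds in DMSO with the PDE inhibitor […] (300 uM solution added) for 30 min at 37C; cAMP was read by HTRF.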
Starred values were filed as active, the others as inactive; ? = inconclusive; / = no result given; & = joins results of further samples; [ ] = dose if it differs, or a comment.

SMILES	Menin MLL FP FL	Sfp PPTase inh	ClpP mod	TRPML1 blocker	gsp antag	TRPV1 potentiator	gsp agonist
CCN1C(=Nc2ccc(Cl)cc2)SC/C1=C\C(=O)OC	-0.6	-7%	-0.8%	0	-14%	-3	-39%
Cc1cccc2cc(C#N)c(NCc3ccccc3)nc12	1.8	?	4.1%	-4	0%	2	0%
CC(OC(=O)c1oc2ccccc2c1COc1ccccc1)C(=O)NC(N)=O (configuration not stated)	0.0	5%	/	11	-16%	-24	?
O=S1(=O)NC2CCCCCN2c2ccc(F)cc21 (configuration not stated)	1.6	-2%	28µM*	-2	-7%	12	21%
Cn1c(=O)c2c(nc(OC/C=C/c3ccccc3)n2C)n(C)c1=O	/	/	-1.7%	-26	0%	/	-2%
CC(C)(C)CC(=O)N1CCC(c2nc3c(nnn3Cc3c(F)cccc3Cl)c(=O)[nH]2)CC1	0.3	5%	-1.3%	-1	4%	1	-22%
CCn1c(SCC(=O)NC2=NCCS2)nnc1C(C)NC(=O)c1ccccc1F (configuration not stated)	-0.5	18%	/	-8	12%	-4	0%
CC1CC(C)CN(c2ncnc3c2cnn3C)C1 (configuration not stated)	-0.3	11%	/	27	11%	-14	-3%[15.4 µM]
Cc1ccc2cc3c(NC(=O)C(C)C)nn(C)c3nc2c1	0.3	5%	-4.6%	-13	0%	8	8%
Cc1ccccc1OCC1CNC(=O)O1 (configuration not stated)	-2.6	10%	-2.0%	-2	7%	3	-25%
Cc1ccc(CC2CC(=O)N(CCc3ccccc3)C2=O)cc1 (configuration not stated)	-7.2	12%	0.3%	28	1%	-6	14%[15.4 µM]
COc1ccc(OC)c(NC(=O)Nc2cccnc2)c1	/	5%	-0.2%	4	6%	-8	31%
COc1ccc(C2OC(=O)CC2C(=O)N2CCN(c3cc(Cl)ccc3C)CC2)cc1OC (configuration not stated)	-0.3	-21%	-1.6%	5	-5%	25	?
O=C(COc1cccc2cccnc12)N/N=C/c1ccccc1O	1.0	-3%	/	0	1%	-9	-1%[15.4 µM]
CC(C)(C)OC(=O)NCC12C=CC(O1)C1C(=O)N(Cc3ccccc3)C(=O)C12 (configuration not stated)	3.8	71µM*	-6.5%	-4	-1%	6	-20%
CC(=O)Cc1nsc(NC(=O)c2cc(-c3cccc(C(F)(F)F)c3)oc2C)n1	5.9	10%	-7.5%	4	-5%	-11	3%
Cc1ccc(NC(=O)c2ccc(-c3nn(C)c(=O)c4ccccc34)cc2)c(C)c1	1.3	-1%	-2.3%	24	?	9	?
Cc1cc(C(=O)N2CCCC(C(=O)c3ccc(Cl)cc3C)C2)no1 (configuration not stated)	/	6%	-3.5%	25	-13%	-9	1%[15.4 µM]
COCCNS(=O)(=O)c1cc(-c2nn(C)c(=O)c3ccccc23)ccc1C	0.7	12%	-0.4%	-10	17%	16	-5%
CCOC(=O)C1CCN(c2nnc(N3CCCC3=O)s2)CC1	-1.1	2%	-1.3%	15	-7%	-5	?
O=C(NCc1ccc(Cl)cc1)C1CCC(CNc2c(N3CCCCC3)c(=O)c2=O)CC1 (configuration not stated)	3.5	15%	0.0%	14	-13%	-4	7%
O=C(NN=Cc1cccc2ccccc12)C(=O)NN=Cc1cccc2ccccc12	/	/	/	37	3%	/	28%
O=C(c1cccc(F)c1)N1CCCc2ccccc21	-3.4	8%	-0.8%	-1	5%	-4	1%
CCSC1=N/C(=C\c2ccccc2)C(=O)N1c1ccc(OC)cc1	-2.7	-10%	/	14	-20%	-9	-8%[15.4 µM]
C=CCc1ccccc1OCC(O)CN(CC)CC (configuration not stated)	3.3	8%	-1.9%	-8	5%	5	-64%[inhibitor]

Other entries
SMILES	Menin MLL FP FL	Sfp PPTase inh	ClpP mod	TRPML1 blocker	gsp antag	TRPV1 potentiator	gsp agonist
Cc1cccc(C)c1N(CC(=O)N1CCN(c2ccccc2F)CC1)S(C)(=O)=O	-3.2	-7%	0.9%	-2	3%	-1	-2%
COc1cc(OC)cc(C(=O)NCCNC(=O)c2ccccc2)c1	-3.1	16%	-7.5%	-8	2%	3	-24%
CN(C(=O)COC(=O)c1cc(S(=O)(=O)N2CCCCC2)ccc1Cl)c1ccccc1	/	/	1.3%	4	?	-6	0%
CN1C(=O)NC(c2cccc([N+](=O)[O-])c2)C2=C1CCCC2=O (configuration not stated)	-3.5	11%	2.3%	-12	11%	6	-9%
CC1CN(C(=O)C(C)OC(=O)c2ccc3ncsc3c2)CC(C)O1 (configuration not stated)	/	/	-3.3%	16	7%	8	1%
O=C(COC(=O)c1ccco1)NNC(=O)c1ccc(Cl)cc1	/	/	1.2%	1	3%	/	10%
CCNC(=O)C1CCCN1S(=O)(=O)c1ccc(OC)cc1 (configuration not stated)	-8.7	14%	-0.3%	-9	8%	8	28%
O=c1[nH]c(CN2CCN(CCO)CC2)nc2ccccc12	0.3	0%	-1.8%	-20	-11%	24	-16%
O=C(c1ccccc1)n1ccc(-c2cccs2)n1	2.4	-11%	-0.2%	-26	-5%	-7	16%[15.4 µM]
c1ccc(-c2ccc3c(c2)c2c4n3CCN=C4CCC2)cc1	0.7	?	-13%	-1	6%	19	0%
C[C@@H]1NS(=O)(=O)[C@H]2C[C@@H]3C=C[C@]2(O3)[C@H]1OC(=O)Nc1ccc(C(F)(F)F)cc1[N+](=O)[O-]	/	/	-0.3%&-1.7%	0	-4%	10	-29%
O=C1CCC(=O)N1CC(=O)N1CCCc2ccccc21	2.1	11%	/	0	3%	13	8%[15.4 µM]
CC[C@H](C)C(=O)N[C@H]1CCCN1C(=O)/C=C/c1ccccc1	/	/	1.4%	-21	8%	14	/
COc1ccc(S(=O)(=O)c2c[nH]c(=S)[nH]c2=O)cc1Cl	13	-1%	/	-5	11%	-6	?
Cc1cccc(N2CCN(C(=O)CCC(=O)N3CCOc4ccc(Cl)cc43)CC2C)c1 (configuration not stated)	-1.6	7%	0.8%	-10	?	18	-30%
Cc1c(NC(=O)CSc2ccc3ccccc3n2)c(=O)n(-c2ccccc2)n1C	/	/	-0.4%	2	0%	-4	2%
COCCCNC(=S)NNC(=O)c1cc(Cl)c(O)c(Cl)c1	-0.8	-13%	-6.0%	30	-5%	-15	20%
N#Cc1ccc(OCC(=O)NNC(=S)NC2CCCCC2)cc1	/	/	-1.3%	0	4%	3	-9%
CC1(C)CC(=O)N(CC(=O)NCc2ccc(F)cc2)c2ccccc2S1(=O)=O	2.1	10%	1.3%	30	12%	0	9%
O=[N+]([O-])c1cccc(COc2cccc(CN3CCCCC3)c2)c1	/	/	-1.3%	-20	10%	/	/
Cc1ccccc1-n1nnnc1SC(C)C(=O)NC1CCCc2ccccc21 (configuration not stated)	2.5	-14%	-1.8%	0	-4%	-14	-36%[inhibitor]
O=C(CN1CCN(Cc2ccccc2)CC1)Nc1ccc([N+](=O)[O-])cc1C(=O)Nc1ccccc1F	-1.1	-1%	-0.6%	-3	?	-4	-16%
O=C(OCCN1CCCCC1)c1cccc(Cl)c1	2.7	-3%	-0.7%	13	7%	-2	-16%
CSc1ccc(S(=O)(=O)NCC(=O)OCC(=O)N2CC(C)CC(C)C2)cc1[N+](=O)[O-] (configuration not stated)	/	/	-7.7%	8	-18%	-4	-27%
CCN(C[C@H]1N[C@@](Cc2ccccc2)(C(=O)OC)[C@H]2C(=O)N(C)C(=O)[C@@H]12)C(=O)COC	/	/	-2.0%	18	12%	/	/

(more compounds)
SMILES	Menin MLL FP FL	Sfp PPTase inh	ClpP mod	TRPML1 blocker	gsp antag	TRPV1 potentiator	gsp agonist
CCCCNC(=O)c1ccc2c(SCC(=O)O)c3c(nc2c1)CCCC3	-3.1	-1%	1.8%	6	5%	13	2%
O=C1NC(c2ccc(Cl)c([N+](=O)[O-])c2)Nc2ccccc21 (configuration not stated)	1.8	15%	-5.2%	-2	-6%	9	?
CC(NC(=O)c1ccc(Br)o1)C1CCCO1 (configuration not stated)	/	10%	-1.2%	-3	14%	5	19%
O=C(NCCCN1CCCC1=O)c1ccc2c(=O)n(-c3ccccc3F)c(=S)[nH]c2c1	-1.3	?	0.4%	8	-6%	4	-8%[15.4 µM]
CCCN1CCN(C(=O)C2CCN(S(=O)(=O)c3c(C)noc3/C=C/c3ccc(C)cc3)CC2)CC1	/	-8%	-5.9%	-17	15%	2	-38%[inhibitor]
COc1cc(CN(C(=O)c2cccs2)C2CCS(=O)(=O)C2)cc(OC)c1OC (configuration not stated)	-2.1	13%	-1.3%	-5	-20%	-8	?
CCOC(=O)C1CCN(S(=O)(=O)c2ccc(-c3cc(C(F)(F)F)n(C)n3)s2)CC1	1.7	4%	-14%	-23	3%	1	-2%
CC1CC(C)CN(CCCNS(=O)(=O)c2ccc3c(c2)oc(=O)n3C)C1 (configuration not stated)	/	9%	8.4%	37	12%	5	-2%[15.4 µM]
Oc1ccc(C2=NNC(c3ccc(O)cc3)=NN2)cc1	-0.4	16%	-5.6%	11	3%	-9	24%[15.4 µM]

Screening results (PubChem)
